OX1R antag – antagonists of human orexin 1 receptor (OX1R). AID 485270, 2010. OX1R-expressing cells, FRET antagonist read-out. Orexin/Hypocretin receptor type 1 (Homo sapiens), O43613. inhibition, % at 6.6 µM. 330,000 tested, 1.8% active; in the data active = inhibition mostly above about 38%, no sharp cut-off; inactive = mostly below about 40%;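 also: 0% = agonist challenge alone and 100% = reference antagonist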
Target sequence (O43613 whole entry, looked up): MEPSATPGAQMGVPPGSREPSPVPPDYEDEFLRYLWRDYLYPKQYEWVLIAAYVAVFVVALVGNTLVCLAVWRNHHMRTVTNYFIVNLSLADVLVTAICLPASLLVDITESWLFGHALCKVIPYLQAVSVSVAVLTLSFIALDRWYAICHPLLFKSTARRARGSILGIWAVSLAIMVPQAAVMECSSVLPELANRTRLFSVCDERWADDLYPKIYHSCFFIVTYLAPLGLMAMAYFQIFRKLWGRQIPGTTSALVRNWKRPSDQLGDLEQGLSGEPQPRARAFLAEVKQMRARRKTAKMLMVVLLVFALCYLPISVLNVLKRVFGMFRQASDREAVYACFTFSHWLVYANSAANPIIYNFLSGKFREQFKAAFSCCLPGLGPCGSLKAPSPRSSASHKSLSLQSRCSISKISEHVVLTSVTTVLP
An asterisk follows results filed as active.

SMILES | OX1R antag
O=C(O)C(c1ccccc1)C1(O)CCCCC1 (stereo not drawn) | 6
Cc1ccc(NC(=O)COC(=O)c2cccc3c(=O)c(C)c(-c4ccccc4)oc23)cc1 | 34
COc1ccc2c(c1)c(CC(=O)NCc1cc([N+](=O)[O-])ccc1O)c(C)n2C(=O)c1ccc(Cl)cc1 | 12
Cc1sc2nc(C3CC3)nc(N3CCN(C(=O)c4ccc(F)cc4)CC3)c2c1C | 31
Cc1ccc2nc(SCC(=O)Nc3ccccc3F)nc(=O)n2c1 | 16
Cc1sc2nc(CN3CCN(S(=O)(=O)c4cccc5nonc45)CC3)[nH]c(=O)c2c1C | 13
CCOC(=O)c1[nH]c2cc(OC)c(OC)cc2c1NC(=O)CN1CCN(c2ccc(OC)cc2)C(C)C1 (stereo not drawn) | 18
Nc1ccc2nc(CCCO)[nH]c2c1 | 10
CCOC(=O)C1CCN(CC(=O)Nc2c(C(=O)OC)[nH]c3cccc(Cl)c23)CC1 | 8
CCCCC(=O)NC(c1ccc(N(CC)CC)cc1)c1ccc2cccnc2c1O (stereo not drawn) | 17
Cc1ccc(-n2nc3c(N4CCC(C(=O)N5CCN(C)CC5)CC4)nnc(C)c3c2C)cc1 | 10
O=C(NCCN1CCN(C(=O)NC2CCCCC2)CC1)NC1CCCCC1 | 31
O=C(Nc1ccccc1N1CCOCC1)c1ccc(OCc2cscn2)cc1 | 17
COc1ccc(F)cc1S(=O)(=O)Nc1cc2c3c(c1)CC(=O)N3CCC2 | 4
CCOc1ccc2nc(N3CCCC(C(=O)NCCCN4CC(C)CC(C)C4)C3)sc2c1 (stereo not drawn) | 9
COC(=O)CCC(=O)OC1(C)C(=O)C=C2C=C(C3CC3)N(CCc3ccccn3)C=C2C1=O (stereo not drawn) | 31
COc1ccc(N/C(C)=C2/C(=O)C(=O)N(CCO)C2c2ccc([N+](=O)[O-])cc2)cc1 (stereo not drawn) | 25
COC(=O)CN(C#N)c1nc(OC)nc(N(C)C)n1 | 9
CN(c1ccccc1)c1nc2ccsc2c(=O)s1 | 3
CC(C)CCNC(=O)c1ccc2c(c1)ncn2C1CCCCC1 | 8
CC(=O)Nc1ccc(OC(F)(F)C(F)F)c(NC(C)=O)c1 | 2
CCS(=O)(=O)Nc1cccc(C2=NN(S(C)(=O)=O)C(c3ccccc3)C2)c1 (stereo not drawn) | 5
Cc1ccc(NC(=O)CN2C(=O)NC3(CCc4ccccc43)C2=O)cc1 (stereo not drawn) | 7
CCN1CCN(S(=O)(=O)c2ccc3c(c2)NC(=O)CS3)CC1 | 39
CCOCC(=O)Nc1ccc(Br)c(C)c1 | 10
Cc1ccc(NC(=O)c2ccc(-c3nn(C)c(=O)c4ccccc34)cc2)cc1 | 11
CC(C)C(NC(=O)CCNC(=O)c1ccc([N+](=O)[O-])cc1)c1nc2ccccc2[nH]1 (stereo not drawn) | 16
COc1ccc(-c2nnn(CC(=O)NCCc3c[nH]c4ccccc34)n2)cc1OC | 37
CCOc1cc(/C=N/NC(=O)c2ccc(CN3CCOCC3)cc2)ccc1OC | 36
C=CCC(C)(NCc1ccccc1)c1ccccc1 (stereo not drawn) | 15

The last two records of the part before open the next one.
SMILES | OX1R antag
CCOc1cc(/C=N/NC(=O)c2ccc(CN3CCOCC3)cc2)ccc1OC | 36
C=CCC(C)(NCc1ccccc1)c1ccccc1 (stereo not drawn) | 15
O=C(O)c1ccc(Cl)c(S(=O)(=O)Nc2ccc(S(=O)(=O)N3CCCC3)cc2)c1 | -1
COc1ccc(NC(=O)C(=O)c2cn(CC(=O)N3CCCC3)c3ccccc23)c(OC)c1 | -2
CC(C)CNC(=O)CCc1c[nH]c2ccccc12 | 20
Cc1ccc(C(c2nnnn2C(C)(C)C)N(Cc2ccco2)Cc2cccs2)cc1 (stereo not drawn) | 12
O=C(N/N=C/c1ccccc1F)c1csc2c1CCCC2 | 13
CCCN(CC(=O)Nc1ccc(Cl)cc1Cl)C(=O)/C=C/c1cccc([N+](=O)[O-])c1 | 22
CNC(=O)c1ccsc1NC(=O)c1ccc(S(=O)(=O)N2CCc3ccccc32)cc1 | 21
COc1ccc(/C=C(/C#N)C(=O)Nc2cccc(C)c2C)cc1C(=O)O | 18
COc1ccc(CCNC(=O)COc2ccc(S(=O)(=O)NC(C)C)cc2)cc1OC | 20
Cc1nnc(-c2ccccc2)nc1N(C)C | 6
O=C(CCCc1ccccc1)N=C1SC2CS(=O)(=O)CC2N1c1ccccc1F (stereo not drawn) | 0
N/C(Cc1ccc(Cl)cc1)=N\OC(=O)c1cccc2ccccc12 | 8
O=C(NC1=NCCS1)Nc1ccccc1 | 16
CCCNC(=O)NS(=O)(=O)c1cnccc1Sc1ccc(Cl)cc1 | 12
COc1ccccc1NC(=O)Cn1nc(-c2ccc3c(c2)OCCO3)ccc1=O | 8
CCCCn1nc(C(=O)N[C@@H](CCSC)c2nc3ccccc3[nH]2)c2ccccc2c1=O | 21
CCC(C)[C@H](NC(=O)NCCCN1CCOCC1)C(=O)OC (stereo partly drawn) | 5
Cc1nn(-c2nc3ccccc3[nH]2)c(N)c1-c1ccc(Cl)cc1 | 11
COc1cccc(NC(=O)CN(C)C(=O)CC2Sc3ccccc3NC2=O)c1 (stereo not drawn) | 2
O=C(CN1CCSCC1)N/N=C/c1ccc(F)c(F)c1 | 10
Cc1ccc(/C=N/NC(=O)CNC(=O)COc2ccc(Cl)cc2)o1 | 10
COc1ccc(C(=O)N2CCN(c3ccc(F)cc3)CC2)cc1S(=O)(=O)NC1CC1 | 10
CCN(CC)S(=O)(=O)c1cccc(NC(=O)COC(=O)c2n[nH]c(=O)c3ccccc23)c1 | 52
O=C(Nn1cnnc1)c1cc2c(s1)CCCCC2 | 13
COC(=O)c1cn(NC(=O)c2cccc(N(C)C)c2)c(=O)c2ccccc12 | 7
[2H]C(CCOS(N)(=O)=O)c1ccccc1 (stereo not drawn) | 19
Nc1nc(NCCCN2CCOCC2)nc(Nc2ccccc2F)c1[N+](=O)[O-] | 16
CN1CCN(C2CCCCC2NS(=O)(=O)c2ccc(Cl)cc2)CC1 (stereo not drawn) | 14
COc1ccc(-c2nnc(SCC(=O)NC3CCCCC3)o2)cc1 | 17
O=C1Nc2ccccc2/C1=C/c1cccnc1 | 30
CSc1ccccc1NS(=O)(=O)c1cccc2nonc12 | 39
O=C(NN1CCCCC1)c1ccccc1 | 12
O=C(NCCN1CCOCC1)C(=O)NCc1ccc2c(c1)OCO2 | 11
O=C(CN1CCN(C(=O)C2CCCO2)CC1)Nc1c(Cl)cccc1Cl (stereo not drawn) | -6
O=C(CCNS(=O)(=O)c1ccccc1F)N1CCN(S(=O)(=O)c2cccc(F)c2)CC1 | 6
COc1cc(C(=O)NC2CCCc3ccccc32)cc(OC)c1OC (stereo not drawn) | 6
Cn1nc(C(=O)Nc2ccc3c(c2)OCCO3)c2ccccc2c1=O | 5
Cc1ccc(C(=O)N2CCN3C(=O)c4ccccc4C23c2ccc(Cl)cc2)cc1 (stereo not drawn) | 10
O=S(=O)(Nc1ccc(C(F)(F)F)cc1)c1cnc[nH]1 | 25
O=C(c1ccco1)N1CCN(C(c2ccccc2)c2nnnn2C2CCCC2)CC1 (stereo not drawn) | 20
O=c1[nH]c(CN2CCN(c3ccccc3)CC2)nc2ccccc12 | 27
O=C(NCCN1CCOCC1)c1ccc2ccccc2n1 | 5
CCn1nc(C)c(NC(=O)/C=C/c2ccc(OC)c(COc3ccc(Cl)cc3Br)c2)c1C | 17
C[C@H](NC(=O)c1nc[nH]c1C(=O)NCCCCCN)C(=O)OC(C)(C)C | 6
CN(Cc1nccs1)C(=O)CC1C(=O)NCCN1Cc1ccc(-c2ccccc2)cc1 (stereo not drawn) | 13
CCOC(=O)C(/C=C(\C#N)C(=O)OCC)=C(/N)N1CCN(c2ccccc2)CC1 | -21
CCC1CCCCN1Cc1nc2c(c(=O)n(C)c(=O)n2C)n1Cc1cccc2ccccc12 (stereo not drawn) | 0
CC(C)[C@H](NS(=O)(=O)c1ccccc1)C(=O)OCC(=O)Nc1ccc2c(c1)OCO2 | 13
C=CCn1c(SCC(=O)N2CCOCC2)nc2sc(CC)cc2c1=O | 2
Cc1ccc(-c2nn(C)c(=O)c3ccccc23)cc1CNC(=O)CSc1nc2ccccc2o1 | 25
COc1ccccc1C(=O)NCC(=O)OCC(=O)Nc1ccc2[nH]c(=O)[nH]c2c1 | 18
CNC[C@H]1Oc2c(NS(=O)(=O)c3ccc(F)cc3)cccc2C(=O)N([C@H](C)CO)C[C@@H]1C | 9
COc1ccccc1OCC(=O)NNc1c2ccccc2nc2ccccc12 | 9
Cc1ccc(C(=O)Nc2ccccc2-c2ccccc2)cc1[N+](=O)[O-] | 20
C/C(=N\Nc1cccc2cccnc12)c1ccc(N)cc1 | 17
Nc1nc(SCC(=O)Nc2ccc(Cl)cn2)n[nH]1 | 13
CCOc1ccccc1CN1CCNC(=O)C1CC(=O)NCCCn1cccn1 (stereo not drawn) | 15
COc1ccc(C(c2sc3nc(C)nn3c2O)N2CCCCC2)cc1 (stereo not drawn) | 9
Cc1nn(Cc2ccc(C(=O)N3CCOCC3)o2)c(C)c1Br | 2
CCOc1ccc2[nH]c(C(=O)N/N=C/c3cccc(OC)c3OC)cc2c1 | 11
Next section
SMILES | OX1R antag
COc1cc(C2C(C(=O)c3ccco3)=C(O)C(=O)N2c2cc(C)on2)ccc1OCc1ccccc1 (stereo not drawn) | 1
CCOc1cc(N2CCOCC2)c(OCC)cc1NC(=O)COc1cccc(CC)c1 | 5
CCOC(=O)c1cc2nc(-c3ccccc3)cc(C)n2n1 | 27
O=C(c1ccc(CNS(=O)(=O)c2cccc(Cl)c2)cc1)N1CCCC1 | 1
CS(=O)(=O)Nc1ccc(C(=O)Nc2ccc3c(c2)OCCO3)cc1 | 12
Cc1cc(C)c(NC(=O)CNC(=O)Cc2ccc(S(=O)(=O)N3CCOCC3)s2)c(C)c1 | -1
Cc1cc(C)c(S(=O)(=O)n2c([N+](=O)[O-])cnc2C)cc1C | 9
COC(=O)c1ccc(NC(=O)CS(=O)(=O)Cc2ccccc2)cc1 | 18
CCOc1nc(NC(=O)NC(=O)c2ccccc2)nc(-c2ccccc2)n1 | 2
Cc1ccc(CS(=O)Cc2ccc(C(=O)NCc3ccc(OC(C)C)cc3)o2)cc1 (stereo not drawn) | 3
O=C(Nc1ccc2c(c1)OCCO2)c1oc2ccccc2c1NC(=O)C1CC1 | 12
COC(=O)c1ccc(NC(=O)c2ccccc2NS(C)(=O)=O)cc1 | 58
COc1ccc(NC(=S)N2CCN(C(=O)c3ccco3)CC2)c(OC)c1 | 26
Cc1ccc(CNC(=O)CN2CCN(Cc3ccc(C)cc3)C2=O)cc1 | 28
CCCN1CCC(NC(=S)Nc2ccc(OC)c(OC)c2)CC1 | 13
C[C@H](NC(=O)OC(C)(C)C)C(=O)N/N=C/c1ccc2nccnc2c1 | 22
O=C(NNC(=O)c1cccnc1)Nc1ccc(Cl)c(Cl)c1 | 24
O=C(CSc1nnc2c(n1)[nH]c1ccccc12)OCc1ccccc1 | 6
Cc1ccc(S(=O)(=O)Nc2nccs2)cc1[N+](=O)[O-] | 5
S=C(c1ccc(-c2ccc(Cl)cc2Cl)o1)N1CCCCC1 | 16
O=C(NCc1cc(C(F)(F)F)cc(C(F)(F)F)c1)C1CC(c2ccccc2F)=NO1 (stereo not drawn) | 50
CCCc1oc(C(=O)O)cc1CN1CCOCC1 | 3
CS(=O)(=O)c1ccc(Cl)c(NC(=O)CCl)c1 | 13
Cc1cc(C)cc(OCc2nnc(SCC(=O)Nc3ccccc3)o2)c1 | 17
Cc1ccccc1C(=O)N1CCN(c2ccc(NC(=O)c3ccccc3[N+](=O)[O-])cc2)CC1 | 15
Cc1cccn2cc(CCNC(=O)c3ccco3)nc12 | 7
COc1cccc(NC(=S)N2CCCC2)c1 | 15
O=C(NCCCN1CCOCC1)c1c(O)c2ccccc2[nH]c1=O | 5
C#CC1(NC(=O)NC(=O)c2c(F)cccc2F)CCCCC1 | 8
CCCCc1nnc(NC(=O)CSc2nc(=O)cc(N)n2-c2ccccc2)s1 | 5
NC(=O)NC(=O)COC(=O)CNS(=O)(=O)c1ccc(F)c(F)c1F | 8
O=C(CSc1nnnn1-c1ccc(Cl)cc1)NC1CCS(=O)(=O)C1 (stereo not drawn) | 0
COC(=O)C1C2C=CC3(CN(c4cccc(C)c4)C(=O)C13)O2 (stereo not drawn) | 15
CN(C(=O)COc1ncnc2c1cnn2-c1ccccc1)C1CCCCC1 | 7
CCCCNC1CCS(=O)(=O)C1 (stereo not drawn) | 27
CC(C)N(C)CCOC(=O)c1ccccc1Cl | 7
Cc1cccc(NC(=O)COc2ccc(-c3nn(C)c(=O)c4ccccc34)cc2)c1 | 3
Cc1nnc(SCC(=O)N2CC(=O)Nc3ccccc32)n1-c1ccccc1 | 12
COc1ccc(C(=O)NCCOC(C)C)cc1OC1CCN(C(C)=O)CC1 | 7
COc1ccc(OC)c(S(=O)(=O)NCCCn2ccnc2)c1 | 8
COc1ccc(NC(=O)C2CCN(S(=O)(=O)c3cccc4nonc34)CC2)c(OC)c1 | 28
COc1cc(Cl)c(S(=O)(=O)N2CCN(Cc3ccc4c(c3)OCO4)CC2)cc1Cl | 16

5 compounds out of the list, arranged by count of non-hydrogen atoms, smallest number first:
SMILES | OX1R antag
Nc1ccc2nc(CCCO)[nH]c2c1 | 10
C=CCC(C)(NCc1ccccc1)c1ccccc1 (stereo not drawn) | 15
CCN1CCN(S(=O)(=O)c2ccc3c(c2)NC(=O)CS3)CC1 | 39
O=c1[nH]c(CN2CCN(c3ccccc3)CC2)nc2ccccc12 | 27
Cc1ccc(CNC(=O)CN2CCN(Cc3ccc(C)cc3)C2=O)cc1 | 28

Rewritten as labelled records: entries from further up
smiles: CN(C(=O)COc1ncnc2c1cnn2-c1ccccc1)C1CCCCC1
- OX1R antag: 7
smiles: CCCCNC1CCS(=O)(=O)C1 (stereo not drawn)
- OX1R antag: 27
smiles: CC(C)N(C)CCOC(=O)c1ccccc1Cl
- OX1R antag: 7
smiles: Cc1cccc(NC(=O)COc2ccc(-c3nn(C)c(=O)c4ccccc34)cc2)c1
- OX1R antag: 3

Assay outcomes as filed in PubChem.

A portion of the library, and most or all hits are left out here.
